High-throughput results from PubChem BioAssay.
ALR H2O2 inh – blocks human ALR sulfhydryl oxidase activity. hit rate 3.8% among 290,000. AID 485317. purified ALR, DTT oxidation, H2O2 HRP-luminol luminescence. inhibition, % (test concentration not listed);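 active = mean and each replicate at 75% or more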;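 also: stock transfer was 7.5 nL into about 7.5 µL; 0% = neutral wells and 100% = wells with inactivated enzyme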
Target sequence (P55789 whole entry, looked up): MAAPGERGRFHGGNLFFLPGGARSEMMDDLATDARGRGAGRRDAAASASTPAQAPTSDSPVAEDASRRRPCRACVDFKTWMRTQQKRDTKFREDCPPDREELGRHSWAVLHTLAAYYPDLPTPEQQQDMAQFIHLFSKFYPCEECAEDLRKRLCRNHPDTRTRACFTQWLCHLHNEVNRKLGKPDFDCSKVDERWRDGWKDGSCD
Vif A3G – HIV-1 Vif–A3G interaction blockers – biochemical, TR-FRET, GST-Vif 1-94, biotin-A3G peptide, dose response retest, primary screen (AID 1117319) | TR-FRET GST-Vif / biotin-A3G peptide binding; higher % means a stronger effect; test concentration not given here; strong numbers were not always called active | inhibition, %; hits with a dose series show IC50 in µM | hit rate 0.57% among 260,000;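 active = above the screen mean plus three standard deviations and confirmed in dose response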;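 also: Vif residues 1-94 fused to GST binding biotinylated APOBEC3G peptide 110-148; 0% = full assay without inhibitor and 100% = GST in place of GST-Vif; retest series ran down from 100 µM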
FGF22 binding – binders of recombinant human FGF22 by thermal shift; Q9HCT0; SYPRO orange fluorescence; percent of sucrose octasulfate shift, DMSO zero; calls only at 9.99 µM; hit rate 1.5% among 340,000; AID 651658;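 active = melting point raised past a set limit in the mean and every replicate; three in four hits are not shown here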
Target sequence (Q9HCT0 whole entry, looked up): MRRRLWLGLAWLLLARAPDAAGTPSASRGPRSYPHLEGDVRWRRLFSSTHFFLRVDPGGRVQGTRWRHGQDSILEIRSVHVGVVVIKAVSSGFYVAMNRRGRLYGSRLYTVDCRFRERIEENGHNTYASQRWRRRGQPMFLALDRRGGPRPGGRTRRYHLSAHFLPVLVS
AF4-AF9 inh – MLL-AF4/AF9 protein interaction inhibition; AlphaScreen, biotin-AF4 peptide binding to FLAG-AF9; hit rate 0.47% among 350,000; P42568; AID 651704; inhibition, % at 10 µM;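 active = every replicate reaching a set inhibition limit, whatever the replicate mean, cut at about 25% in these data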;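 also: 0% = plate neutral control median and 100% = total signal loss; the record names both 10 and 1 µM as test concentration; the first replicate is given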
Target sequence (P42568 whole entry, looked up): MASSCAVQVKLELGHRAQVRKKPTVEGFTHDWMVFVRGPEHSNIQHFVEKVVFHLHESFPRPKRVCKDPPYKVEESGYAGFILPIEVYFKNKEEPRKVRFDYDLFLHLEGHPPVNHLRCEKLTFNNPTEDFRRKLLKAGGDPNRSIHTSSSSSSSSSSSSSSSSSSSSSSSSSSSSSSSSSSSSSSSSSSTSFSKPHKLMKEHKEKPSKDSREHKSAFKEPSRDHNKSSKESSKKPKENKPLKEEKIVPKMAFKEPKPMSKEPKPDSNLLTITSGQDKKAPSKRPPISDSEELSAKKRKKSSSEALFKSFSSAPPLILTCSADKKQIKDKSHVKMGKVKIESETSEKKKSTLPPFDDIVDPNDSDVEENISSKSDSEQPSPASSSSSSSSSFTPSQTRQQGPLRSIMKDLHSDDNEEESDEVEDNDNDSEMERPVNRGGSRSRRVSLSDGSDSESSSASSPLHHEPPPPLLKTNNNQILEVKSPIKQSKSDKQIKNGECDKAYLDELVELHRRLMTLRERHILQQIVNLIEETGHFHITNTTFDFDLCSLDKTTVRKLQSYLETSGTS
HNF4A DNA FP – change in binding of human HNF4 alpha to DNA; P41235; activity change, % at 10 µM; hit rate 0.3% among 360,000; AID 1224865; HNF4a-FITC DNA binding, fluorescence polarization, 1 h; in the data active = activity change above about 30%, passing the limit was not always enough;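 also: controls were the assay level and a saturating level of protein; the project sought stronger binding though the title names inhibitors; some compounds called inactive have numbers as strong as hits; positive values seem to mean higher polarization but the record does not say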
Ecoli growth – inhibitors of Escherichia coli growth | OD600, 23 h; stronger effect = lower value | OD600 absorbance (test concentration not listed) | hit rate 0.21% among 330,000 | AID 1053175;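 active = OD600 absorbance below the run mean of sample wells minus 3.6 SD, in any replicate, cut at about 0.56 in these data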;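 also: stock transfer was 300 nL into about 60 µL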
Ecoli rRNA inh – selective bacterial rRNA inhibition in E. coli; hit rate 1.6% among 350,000; AID 720706; E. coli WT GFP vs humanized-ribosome RFP mutants, fluorescence, 24 h; stronger effect = lower value; DMSO median 0, no signal -100; GFP signal change (wild-type ribosome), % (concentration not given with the values);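 active = significant combined selectivity score with lowered wild-type GFP, culture density cut under 30%, mutant RFP and density less affected; inactive = any of these conditions unmet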; also: one replicate is shown; some compounds called inactive have numbers as strong as hits
Ecoli rRNA inh OD600 – further read-out of Ecoli rRNA inh, marked with its call; OD600 change, %; measured here: OD600 growth;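 optical density of the mix in the first replicate; 0 = DMSO median and -100 = no signal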
Ecoli rRNA inh RFP – also measured in Ecoli rRNA inh; calls as there; RFP signal change, %; measured here: RFP humanized mutant strains;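 first replicate; 0 = DMSO median and -100 = no signal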
The depositor's hits bear a star; i = inactive; x = not tested or not shown. A portion of the library; rates above refer to the full screens.

SMILES	ALR H2O2 inh	Vif A3G	FGF22 binding	AF4-AF9 inh	HNF4A DNA FP	Ecoli growth	Ecoli rRNA inh	Ecoli rRNA inh OD600	Ecoli rRNA inh RFP
Cc1ccc(NC(=O)CN2C(=O)NC3(CCCC3)C2=O)c(Cl)c1	30	x	i	-5.4	2.0	0.68	0	-1	-2.2
COc1ccccc1CNS(=O)(=O)c1c(C)[nH]c(C)c1C(=O)N1CCCCC1	-6	-13%	i	1.4	2.4	0.7	-1	0	-0.3
CC(=O)NC1=NN(C(C)=O)C(c2ccc(C(C)C)cc2)S1 (stereo not drawn)	1	x	x	x	-2.2	0.69	x	x	x
O=C(NCCN1CCN(c2ccccc2)CC1)c1cccc(Cl)c1	98*	3%	i	1.4	2.5	0.61	1	15	1.4
CCCCNC(=S)N/N=C/c1cccc(OCC)c1O	-3	-7%	i	1.2	-0.3	x	18	3	-0.5
CCOc1ccc(Oc2ccccc2NC(=O)CN2C(=O)NC3(CCCC3)C2=O)cc1	2	1%	i	-0.5	-2.0	0.71	4	4	-0.3
CCOc1ccc(S(=O)(=O)Nc2cccc(C(=O)NCCCn3ccnc3)c2)cc1	2	0%	i	0.3	-5.2	x	2	0	0.9
CC(=O)c1cccc(NC(=O)CN2CCN(S(=O)(=O)/C=C/c3ccccc3)CC2)c1	-3	-16%	i	1.8	-1.0	0.66	x	x	x
Cc1oc(-c2cccc(Cl)c2)nc1CSCC(=O)O	x	9%	i	-1.1	-0.5	0.75	-7	-6	0.1
CCC(=O)N1CCN(c2ccc(NC(=S)NC(=O)c3cccc([N+](=O)[O-])c3)cc2)CC1	19	19%	x	x	3.4	0.7	x	x	x
CCCCn1c(N)c(N(CC(C)C)C(=O)CCNC(=O)c2ccc(Br)cc2)c(=O)[nH]c1=O	-4	-1%	i	-1.5	2.6	0.64	15	11	5.4
C[C@@H]1CN([C@H](C)CO)C(=O)c2cccc(NC(=O)c3nc4ccccc4s3)c2O[C@H]1CN(C)C(=O)Nc1ccc2c(c1)OCO2	x	x	i	5.7	x	x	-5	-5	-1.6
Nc1ncc(-c2nnnn2-c2ccc(Cl)cc2)c(-c2ccc(Cl)cc2)n1	0	2%	x	x	1.1	0.68	x	x	x
O=C(NC1CCCC1)c1ccc2c(c1)N(Cc1ccc(F)cc1)CCS2	39	1%	i	-3.6	5.4	0.69	-3	2	-0.2
Cc1c(C(=O)Nc2ccccc2)cnn1-c1ccccc1	8	x	i	-1.9	2.4	0.67	-1	0	-3.4
CC(C)c1ccc(OCC(=O)NNC(=S)NC(=O)C2CC2)cc1	13	x	i	-0.5	-1.1	x	-27	-31	-5.8
Cc1ccc(S(=O)(=O)N(C)C[C@H]2Oc3ccc(NC(=O)C4CC4)cc3C(=O)N([C@H](C)CO)C[C@@H]2C)cc1	x	x	i	-0.3	x	x	-3	-1	3.7
CC(=O)c1sc(NC(=O)c2c(F)cccc2F)nc1-c1ccccc1	8	-9%	i	-0.1	-2.2	0.68	-10	-3	2.3
Cc1cc(C)nc(NN2C(=O)C=CC2=O)n1	x	2%	x	x	-0.7	0.7	x	x	x
CCOC(=O)CN1C(=O)c2ccccc2Sc2ncccc21	-3	-8%	i	-11	1.9	0.7	11	6	3.1
Cc1ccc(-n2nc3c(=O)n(CC(=O)NCCc4cccs4)nc(C)c3c2C)cc1	-1	x	i	-0.8	1.1	0.69	2	4	-0.6
C[C@H]1CN([C@@H](C)CO)C(=O)Cc2cc(NS(=O)(=O)c3ccc(Cl)cc3)ccc2O[C@@H]1CN(C)Cc1ccncc1	x	x	i	2.6	x	x	-7	0	0.8
COc1ccc(NC(=O)c2ccc(N3CCCC3=O)cc2)cc1Cl	-6	4%	i	-1.0	3.1	0.67	3	26	-1.1
COc1ccc(S(=O)(=O)Nc2ccc3c(c2)C(=O)N([C@H](C)CO)C[C@@H](C)[C@H](CN(C)C(=O)Cc2ccccc2)OCCCC[C@@H](C)O3)cc1	x	x	i	0.8	x	x	-4	-13	8.4

An excerpt of these results, comma-delimited.
compound,ALR H2O2 inh,Vif A3G,FGF22 binding,AF4-AF9 inh,HNF4A DNA FP,Ecoli growth,Ecoli rRNA inh,Ecoli rRNA inh OD600,Ecoli rRNA inh RFP
CC(=O)c1sc(NC(=O)c2c(F)cccc2F)nc1-c1ccccc1,8,-9%,i,-0.1,-2.2,0.68,-10,-3,2.3
Cc1cc(C)nc(NN2C(=O)C=CC2=O)n1,x,2%,x,x,-0.7,0.7,x,x,x
CCOC(=O)CN1C(=O)c2ccccc2Sc2ncccc21,-3,-8%,i,-11,1.9,0.7,11,6,3.1
Cc1ccc(-n2nc3c(=O)n(CC(=O)NCCc4cccs4)nc(C)c3c2C)cc1,-1,x,i,-0.8,1.1,0.69,2,4,-0.6

Other records
SMILES	ALR H2O2 inh	Vif A3G	FGF22 binding	AF4-AF9 inh	HNF4A DNA FP	Ecoli growth	Ecoli rRNA inh	Ecoli rRNA inh OD600	Ecoli rRNA inh RFP
CC(C)NC(=O)c1cc2cc([N+](=O)[O-])ccc2s1	-13	8%	x	x	1.8	0.69	x	x	x
CCOc1cc(C)nc(NCCc2ccc(OC)c(OC)c2)n1	-2	3%	x	x	7.1	0.68	x	x	x
O=C1C(=O)N(CCCO)C(c2ccc(Br)cc2)/C1=C(\O)c1ccc(Br)cc1 (stereo not drawn)	2	x	i	-8.0	-1.9	0.71	-2	-5	-2.2
c1ccc(COc2ccc(Oc3nc(N4CCCCC4)nc(N4CCOCC4)n3)nn2)cc1	-1	3%	x	x	2.4	0.68	x	x	x
C=CCOc1nc2c(c(=O)n(C)c(=O)n2C)n1C	1	2%	i	10	0.6	0.68	8	-1	0.6
Cc1ccc(S(=O)(=O)CCC(=O)Nc2cccc(S(=O)(=O)N3CCCCCC3)c2)cc1	-1	-12%	i	2.2	-2.8	0.66	-28	-32	-3.3
CSCC[C@H](NC(=O)[C@H]1CC[C@H](CNC(=O)[C@@H]2CCCN2)CC1)C(=O)O	-26	-5%	i	-2.6	4.6	x	7	20	-1.4
COc1ccc(NC(=O)c2cc(-c3ccc(OC)c(OC)c3)nc3ccccc23)c(OC)c1	-3	x	i	1.2	5.0	0.69	2	-2	3.0
Cc1cc(-c2ccc(C(C)C)c(S(=O)(=O)NCc3ccco3)c2)on1	1	x	i	-1.0	-3.4	0.71	-10	-7	0.1
CCC(=O)Nc1ccc2c(c1)C(=O)N(C)[C@H]1CC[C@H](CC(=O)NCCN3CCCCC3)O[C@@H]1CO2	x	x	i	-0.4	x	x	0	4	-1.4
CN(c1ccccc1)S(=O)(=O)c1cccc(C(=O)Nc2ccc3c(c2)CCC3)c1	48	x	i	0.2	2.3	0.69	-13	-12	-4.0
CCCCn1c(=O)c(-c2ccccc2)c(O)c2ccccc21	24	-9%	x	x	0.0	0.67	x	x	x
COc1cccc(NC(=O)N[C@H]2C=C[C@H](CC(=O)Nc3ccc(-c4ccccc4)cc3)O[C@H]2CO)c1	x	x	i	0.5	x	x	-2	-1	2.0
Cc1ccc(CNC(=O)c2sc3ccc(S(=O)(=O)N4CCCCC4)cc3c2N)cc1	-9	13%	x	x	x	0.7	x	x	x
COc1ccc(CC(=O)Nc2c3c(nn2C(C)(C)C)CS(=O)(=O)C3)cc1	-5	1%	i	0.3	0.4	0.71	16	11	2.2
Cc1cc(C(=O)N/N=C/C=C/c2cccc([N+](=O)[O-])c2)n[nH]1	x	-6%	x	-9.7	9.1	x	1	3	-0.7
COc1cccc(-c2nc(C=O)cs2)c1	-4	x	i	0.2	-0.4	0.68	12	4	6.1
CO[C@@H]1CN(C)C(=O)c2ccc(NC(=O)c3cccnc3)cc2OC[C@@H](C)N(CC2CCCCC2)C[C@H]1C	x	x	i	4.7	x	x	2	-4	-1.9
C[C@@H]1CN([C@H](C)CO)C(=O)c2cccc(NC(=O)Nc3ccc(C(F)(F)F)cc3)c2O[C@H]1CN(C)S(=O)(=O)c1ccc(F)cc1	x	x	i	-0.8	x	x	1	1	0.4
O=C(COC(=O)c1ccccc1SCC(=O)N1CCCC1)Nc1ccc(OC(F)F)cc1	-3	4%	x	-0.2	-1.2	0.65	0	-10	0.3
O=C(Nc1cccnc1Oc1ccc(Cl)cc1)c1cccc2ccccc12	-6	-9%	i	x	1.6	0.71	-4	-3	11
O=C(c1cccc(F)c1)N1CCCCN2[C@H](C1)[C@@H](c1ccc(/C=C/c3ccccc3)cc1)[C@@H]2CO	x	x	i	-1.4	x	x	4	10	1.1
C[C@@H]1CN([C@@H](C)CO)C(=O)c2cc(NC(=O)Cc3cn(C)c4ccccc34)ccc2O[C@@H]1CN(C)S(=O)(=O)c1cccs1	x	x	i	-2.0	x	x	-2	2	1.4
CC(=O)n1nc(-c2ccc(C)cc2)nc1NCc1ccco1	x	15%	i	1.1	0.9	0.75	2	11	-1.1
Cc1ccc(NC(=O)Cn2ccnc2)cc1C	-10	-8%	i	0.9	2.5	0.67	12	4	2.0
C[C@@H]1CN([C@H](C)CO)C(=O)c2cc(NC(=O)Nc3ccccc3)ccc2O[C@@H](C)CCCCO[C@H]1CN(C)C(=O)Cc1ccccc1	x	x	i	0.6	x	x	-1	7	-0.3
O=C(OCc1nc2scc(-c3ccccc3)c2c(=O)[nH]1)c1ccco1	-4	5%	i	-0.5	-1.5	0.71	-24	-32	-2.4

3 compounds from above, arranged by heavy-atom count, high to low.
SMILES	ALR H2O2 inh	Vif A3G	FGF22 binding	AF4-AF9 inh	HNF4A DNA FP	Ecoli growth	Ecoli rRNA inh	Ecoli rRNA inh OD600	Ecoli rRNA inh RFP
O=C1C(=O)N(CCCO)C(c2ccc(Br)cc2)/C1=C(\O)c1ccc(Br)cc1 (stereo not drawn)	2	x	i	-8.0	-1.9	0.71	-2	-5	-2.2
CC(=O)c1sc(NC(=O)c2c(F)cccc2F)nc1-c1ccccc1	8	-9%	i	-0.1	-2.2	0.68	-10	-3	2.3
CCCCn1c(=O)c(-c2ccccc2)c(O)c2ccccc21	24	-9%	x	x	0.0	0.67	x	x	x
